Compound activity (PubChem BioAssay)
HPGD block: blocks human HPGD enzyme activity. P15428. purified HPGD, NADH fluorescence kinetic, PGE2 substrate. Potency, µM, inactives show at the highest dose activity change, negative = inhibition, usual class: inhibitors. 150,000 compounds, 4.3% hits; active = well fitted inhibition curve with a large enough effect (not every such curve was filed as active); inconclusive = small, poorly fitted or top-dose-only effect, or another doubt; inactive = no such curve, though single readings can be large or run the other way;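 note: top concentration of the series not given in the record; plate controls included wells without enzyme; inactives centre near -10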
Target sequence (P15428 whole entry, looked up): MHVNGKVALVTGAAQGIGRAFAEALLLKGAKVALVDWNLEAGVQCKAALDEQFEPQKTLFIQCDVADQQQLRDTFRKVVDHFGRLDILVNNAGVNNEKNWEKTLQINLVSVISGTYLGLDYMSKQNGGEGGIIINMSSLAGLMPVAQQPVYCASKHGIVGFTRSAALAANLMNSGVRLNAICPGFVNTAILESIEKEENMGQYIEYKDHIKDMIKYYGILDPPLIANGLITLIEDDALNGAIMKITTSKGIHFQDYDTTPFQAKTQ
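20 nM HPGD preincubated 15 min at room temperature with compound in 50 mM Tris-HCl pH 8, 0.01% Tween 20. Started with 1 mM NAD+ and 30 uM prostaglandin E2; NADH fluorescence (360/450 nm) read 5 times over 30-s intervals, last minus first.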
Starred values were filed as active, the others as inactive; ? = inconclusive. % is set by controls: 0 for no effect and ±100 for the full control effect; potency is the fitted concentration of half-maximal effect. This is a subset; the hit share may differ from the screen's.

HPGD block,mol
?,O=c1cc(O)c2sc3nc(-c4ccccc4)cc(C(F)(F)F)c3c2[nH]1
4%,O=C(Nc1ccc(N2CCOCC2)cc1)C1CC1
7.1µM*,CCCc1cc(Nc2ccccc2OCC)n2ncnc2n1
35µM*,Cc1oc(-c2nc3ccccc3n2C)cc1C(=O)c1ccccc1
-11%,COc1cc(NC(=O)c2ccc(OC)c([N+](=O)[O-])c2)ccc1NC(=O)c1cccs1
-11%,CCOC(=O)c1ccccc1NC(=O)CN(c1ccccc1OCC)S(C)(=O)=O
8%,COc1cc(C(=O)NNC(=O)C2CC=CCC2C(=O)O)cc(OC)c1OC (configuration not stated)
-20%,CC(=O)c1sc(N/N=C\c2ccc(C)cc2)nc1C
0%,CCCCCC(C(=O)O)C(C)CC(=O)NC1CCCCC1 (configuration not stated)
0%,CCc1ccccc1NC(=O)CN(C)C(=O)CSc1nnc(Nc2cccc(C)c2)s1
-3%,Cc1ccc(-c2nnc(SCC(=O)Nc3ccccc3N3CCOCC3)o2)cc1
2%,CSc1nnc(-c2ccncc2)n1CCCN1CCCC1=O
-10%,CC1=C(C(=O)Nc2ccccc2Cl)C(c2ccc(N(C)C)cc2)NC(=O)N1 (configuration not stated)
-4%,Cc1nn(C)c(Cl)c1NC(=O)OCc1ccccc1
16µM*,c1ccc(COc2ccc(Nc3ncnc4nc[nH]c34)cc2)cc1
-18%,O=C1CC(c2ccc(F)cc2)Sc2ccccc2N1 (configuration not stated)
-8%,Fc1cccc(/C=N\N=C/c2cccc(F)c2)c1
25µM*,O=C(CSc1nnc(-c2cccs2)o1)N1CCCCC1
-15%,Cc1sc2nc(C(C)Nc3ccccc3N3CCOCC3)[nH]c(=O)c2c1C (configuration not stated)
-13%,COc1cccc(C2=NOC(C(=O)Nc3ccc(OC)c(OC)c3)C2)c1 (configuration not stated)
-16%,COn1c(SCc2cccnc2)nc2ccccc2c1=O
32µM*,N#C/C(=C\c1ccc(O)c(O)c1)C(=O)NCCCc1ccccc1
-13%,CCN(CC)c1ccc(/C=C2\CCC(/C=N/NC(=O)c3ccc(=O)n(C)c3)=C2N2CCOCC2)cc1
-13%,O=S(=O)(c1cccc2cccnc12)N1CCc2ccccc21
7.9µM*,O=C(NCCOC(=O)c1ccc(C(=O)OCCNC(=O)c2ccccc2)o1)c1ccccc1
-3%,CCN1CCN(C(c2cc(OC)ccc2OC)c2nnnn2Cc2ccccc2)CC1 (configuration not stated)
40µM*,CC(C)NC(=O)c1onc(CSc2ccc(F)cc2)c1C(=O)O
-12%,COc1ccccc1NC(=O)C1CCCN(c2cc(C)nc3ncnn23)C1 (configuration not stated)
-13%,CN(C)c1cc(=O)n2c(n1)SCCC2
-19%,Cn1c(SCC(=O)Nc2ccccc2F)nnc1-c1cc2ccccc2o1
-11%,CC(CCc1ccccc1)NC(=O)C1CCN(c2nnc(-n3cccc3)s2)CC1 (configuration not stated)
-9%,CCOC(=O)N1CCN(C(=O)C2CCN(S(=O)(=O)c3ccc(Br)s3)CC2)CC1
-16%,COc1ccccc1NS(=O)(=O)c1cc(Cl)ccc1OC
?,CCOC(=O)CSc1nn(C)c(=S)s1
-2%,O=C(CCC(=O)Nc1ccccc1Cl)NNC(=O)c1ccco1
?,COc1cc(C)nc(N2CCC(C(=O)NC3CCCCC3)CC2)n1
2%,O=Nc1c(-c2c(O)[nH]c3cc(Br)ccc23)[nH]c2ccccc12
-5%,O=C(Nc1cnc2ccccc2c1)N1CCOCC1
-15%,CCCC/C=C/C(NC(=O)c1ccc(-c2ccccc2)cc1)c1ccccc1 (configuration not stated)
-17%,CCNC(=S)N(CCc1ccccc1C)Cc1cc2cc(OC)c(OC)cc2[nH]c1=O
-4%,CCn1c(SCC(=O)Nc2cccc(C)n2)nnc1-c1ccco1
-9%,CC(=C/c1ccccc1)/C=N/n1cnnc1
-6%,O=C(CN(C(=O)CCC(=O)Nc1nccs1)c1ccc2c(c1)OCO2)NCC1CCCO1 (configuration not stated)
-6%,c1ccc2c(c1)OCCOCCOCCOCCOc1ccccc1OCCOCCOCCO2
-15%,CC(C)(C)n1nnnc1C(c1ccc2ncccc2c1)N1CCSCC1 (configuration not stated)
-13%,COc1ccc(NC(=O)N2CCN(CCC#N)CC2)cc1
-9%,CCOC(=O)c1sc(NC(=O)C2CC2)nc1C
-10%,CC1=[N+](C)N(c2ccccc2)C(=O)C1N=Cc1c(Cl)cccc1Cl (configuration not stated)
-5%,COc1ccccc1C(=O)Nc1c(C)n(C)n(-c2ccccc2)c1=O
4%,COC(=O)C1=C(N)Oc2cc(C)[nH]c(=O)c2C1c1cccnc1 (configuration not stated)

Taken from the results shown (23 entries):
HPGD block,mol
-12%,COc1ccccc1NC(=O)C1CCCN(c2cc(C)nc3ncnn23)C1 (configuration not stated)
-13%,CN(C)c1cc(=O)n2c(n1)SCCC2
-19%,Cn1c(SCC(=O)Nc2ccccc2F)nnc1-c1cc2ccccc2o1
-11%,CC(CCc1ccccc1)NC(=O)C1CCN(c2nnc(-n3cccc3)s2)CC1 (configuration not stated)
-9%,CCOC(=O)N1CCN(C(=O)C2CCN(S(=O)(=O)c3ccc(Br)s3)CC2)CC1
-16%,COc1ccccc1NS(=O)(=O)c1cc(Cl)ccc1OC
?,CCOC(=O)CSc1nn(C)c(=S)s1
-2%,O=C(CCC(=O)Nc1ccccc1Cl)NNC(=O)c1ccco1
?,COc1cc(C)nc(N2CCC(C(=O)NC3CCCCC3)CC2)n1
2%,O=Nc1c(-c2c(O)[nH]c3cc(Br)ccc23)[nH]c2ccccc12
-5%,O=C(Nc1cnc2ccccc2c1)N1CCOCC1
-15%,CCCC/C=C/C(NC(=O)c1ccc(-c2ccccc2)cc1)c1ccccc1 (configuration not stated)
-17%,CCNC(=S)N(CCc1ccccc1C)Cc1cc2cc(OC)c(OC)cc2[nH]c1=O
-4%,CCn1c(SCC(=O)Nc2cccc(C)n2)nnc1-c1ccco1
-9%,CC(=C/c1ccccc1)/C=N/n1cnnc1
-6%,O=C(CN(C(=O)CCC(=O)Nc1nccs1)c1ccc2c(c1)OCO2)NCC1CCCO1 (configuration not stated)
-6%,c1ccc2c(c1)OCCOCCOCCOCCOc1ccccc1OCCOCCOCCO2
-15%,CC(C)(C)n1nnnc1C(c1ccc2ncccc2c1)N1CCSCC1 (configuration not stated)
-13%,COc1ccc(NC(=O)N2CCN(CCC#N)CC2)cc1
-9%,CCOC(=O)c1sc(NC(=O)C2CC2)nc1C
-10%,CC1=[N+](C)N(c2ccccc2)C(=O)C1N=Cc1c(Cl)cccc1Cl (configuration not stated)
-5%,COc1ccccc1C(=O)Nc1c(C)n(C)n(-c2ccccc2)c1=O
4%,COC(=O)C1=C(N)Oc2cc(C)[nH]c(=O)c2C1c1cccnc1 (configuration not stated)

New compounds follow:
HPGD block,mol
-9%,N/C(Cc1cccs1)=N\OC(=O)COc1ccccc1
?,CCOc1ccc2nc(SCc3cccc(C)c3)nc(C)c2c1
-7%,NS(=O)(=O)c1ccc(NC(=O)CCC2CCCCC2)cc1
-17%,N#C/C(=C\c1ccco1)C(=O)Nc1cccc2ncccc12
-5%,CCOC(=O)C(NC(=O)CC)(N1CCc2ccccc2C1)C(F)(F)F (configuration not stated)
-4%,O=C(CCc1c[nH]c2ccccc12)NCc1ccc2c(c1)OCO2
-3%,CCOC(=O)CCn1nnc(N)n1
-28%,CCCc1cc(=O)[nH]c(SCc2csc(-c3ccccc3)n2)n1
-5%,COc1cc(C(=O)COC(=O)CNC(=O)C2CCCCC2)cc(OC)c1OC
-11%,COc1ccc(OC)c(C2C(C(=O)c3cc4ccccc4o3)=C(O)C(=O)N2c2cc(C)on2)c1 (configuration not stated)
?,COc1ccc(N(Cc2cc3cc(OC)ccc3[nH]c2=O)S(C)(=O)=O)cc1
2%,O=C(NC12CC3CC(CC(C3)C1)C2)N1CCC(O)CC1
0%,O=C(CCC(=O)NNC(=O)Nc1ccc(Cl)cc1)NCc1ccccc1
-17%,CC(C)(C)c1ccc(C(=O)Nc2ccc(Cl)cc2)cc1
-3%,Cc1cc(C(=O)NCCCc2ccccc2)no1
-16%,COC(=O)c1ccc(CSc2nnc(NC(=O)c3cc4c(s3)CCCC4)s2)cc1
-13%,CC(=O)Nc1ccc(S(=O)(=O)Oc2ccc(C=O)cc2)cc1
-8%,COC(=O)CSc1nnc2n1C(C)(C)Cc1ccccc1-2
0%,CCCCN(C)C(=O)C(Cc1ccccc1)NS(=O)(=O)c1ccc2c(c1)CCC(=O)N2 (configuration not stated)
-16%,CCOC(=O)CSc1nnc([C@H](CC(C)C)NC(=O)OC(C)(C)C)o1
4%,CSCCC(C(=O)N1C[C@]2(C)C[C@H]1CC(C)(C)C2)N1C(=O)c2ccccc2C1=O (some centres not stated)
?,COc1ccc(NC(=O)c2ccc(-c3ccc(C)c4ccccc34)o2)cc1
-8%,On1nnc2ccc3ccccc3c21
-17%,CC(C)c1[nH]nc2c1C(c1cccs1)C(C#N)=C(N)O2 (configuration not stated)
-29%,Clc1ccc(-c2nnc3n2CCCC3)cc1

Reformatted bar-delimited: two of the compounds above.
compound | HPGD block
O=C(CCC(=O)Nc1ccccc1Cl)NNC(=O)c1ccco1 | -2%
CC1=[N+](C)N(c2ccccc2)C(=O)C1N=Cc1c(Cl)cccc1Cl (configuration not stated) | -10%

Next records follow:
HPGD block,mol
?,O=C(NCc1ccccc1)c1ccc2nc(-c3ccco3)c(-c3ccco3)nc2c1
0%,COCC(=O)N1CCC2(CC1)CCN(c1ccncc1)CC2
-11%,CCOC(=O)c1c[nH]c2c(Cl)ccc(Cl)c2c1=O
-22%,CO/N=C(\c1nonc1N)N1CCN(c2ccc([N+](=O)[O-])cc2Cl)CC1
-9%,CC(=O)NC(Cc1ccc(C)cc1)C(=O)NC1CCN(C(=O)c2ccc([N+](=O)[O-])cc2)CC1 (configuration not stated)
-15%,COCCCn1c(=S)[nH]c2ccc(N3CCOCC3)cc2c1=O
-5%,CCN(CC)CCn1c(NCc2ccc(C)o2)nc2ccccc21
-7%,N#CC(C(=O)NC1CC1)c1nc2ccccc2nc1N1CCN(C/C=C/c2ccccc2)CC1 (configuration not stated)
-8%,CCc1ccc2[nH]c(=O)c(C(c3nnnn3Cc3ccc(OC)cc3)N3CCOCC3)cc2c1 (configuration not stated)
-5%,O=C(Cc1cc(=O)[nH]c(=O)[nH]1)NCc1ccccc1
-20%,Cc1ccc(CSc2nnc3nc(C)cc(C)n23)cc1
-9%,Cc1ccc(OCC(=O)NCC(=O)Nc2ccc(F)c(F)c2F)c([N+](=O)[O-])n1
-5%,CCn1c(SCc2ccc(OC)cc2)nnc1-c1ccncc1
-15%,CC1CCCCC1NC(=O)COc1ccc(-n2cnnn2)cc1 (configuration not stated)
-9%,CCCCCC(=O)Cc1cc(O)cc(O)c1C(=O)Oc1cc(CC(=O)CCCCC)c(C(=O)O)c(OC)c1
-14%,Cc1nc(N2CCN(C)CC2)[nH]c(=O)c1Cc1cccc2ccccc12
-20%,CCN(CC)C(=O)CSc1nsc(SCC(=O)N(CC)CC)c1C#N
-6%,CCOCCCn1c(=S)[nH]c2cc(C(=O)N3CCOCC3)ccc2c1=O
-10%,COCC(C)n1c(C)cc(C(=O)COC(=O)CN=C2NS(=O)(=O)c3ccccc32)c1C (configuration not stated)
-7%,O=C(NCc1cccs1)C1CC(=O)N(C2CCCC2)C1 (configuration not stated)
-24%,C=CCc1c(C)nc2c(C(=O)O)cnn2c1C
?,CSc1cccc(NS(=O)(=O)c2cccs2)c1
-1%,CC(C)NS(=O)(=O)c1ccc(OCC(N)=O)c(Cl)c1
-6%,Cc1cc(NCCNC2=CC(=O)CCC2)nc2ccccc12
-27%,Cc1ccc(OCc2nc(C#N)c(NCc3ccc4c(c3)OCO4)o2)cc1
-7%,CCC(=O)NC(C)c1nc2ccccc2n1C (configuration not stated)
?,O=C(CC1CC2CCC1C2)OCC(=O)c1c[nH]c2ccccc12 (configuration not stated)
-15%,CC(C)CC(=O)NC(=S)Nc1ccccc1C(=O)Nc1ccccc1
-14%,CCCCOc1ccc(C(=O)NCCCC(=O)N2CCCCC2)cc1
-5%,CCCCC/C=C\C=C\[C@@H](O)CCCCCCCC(=O)O
-23%,COc1ccccc1NC(=S)NCC1CCCO1 (configuration not stated)
-14%,Cc1sc2ncn(CC(=O)NCc3ccccn3)c(=O)c2c1S(=O)(=O)N1CCOCC1
-12%,CCOc1ccccc1NC1=C(Cl)C(=O)N(c2ccccc2)C1=O
-6%,C#CCOCCOCCOCCNc1nc(N2CCN(C(=O)[C@H](C)n3cc(CCCN=C(N)N)nn3)CC2)nc(N2CCN(C(=O)[C@H](Cc3ccc(O)cc3)n3cc(CCO)nn3)CC2)n1
1%,Cc1cc(Cl)ccc1OCC(=O)NCCOc1nc(N2CCOCC2)nc(N2CCOCC2)n1
-6%,CC(C)OC(=O)/C(C#N)=C/c1cn(Cc2ccccc2)c2ccccc12
-5%,NS(=O)(=O)c1ccc2nc(NC(=O)C3CCCO3)sc2c1 (configuration not stated)
-6%,CN1CCN(c2nc(-c3cccc(C#N)c3)nc3ccccc23)CC1
-7%,O=C(CNC(=O)c1ccccc1)Nc1cccc(C(F)(F)F)c1
-18%,C[C@@H](C(=O)NCc1ccccc1)N1C(=O)C2CC=CCC2C1=O (some centres not stated)
2%,CCN1CCCC1CNC(=O)CN1C(=O)COc2ccc(C)cc21 (configuration not stated)
-1%,CC1(C)CC2CC(C)(CN2S(=O)(=O)c2cccc(N)c2)C1 (configuration not stated)
-13%,Nc1nncn1C(=O)CCc1ccccc1
-6%,CCCCC(c1nnnn1C1CCCC1)N1CCN(C(=O)c2ccco2)CC1 (configuration not stated)
-14%,O=C(N/N=C\c1ccc(COc2ccc([N+](=O)[O-])cc2)o1)c1ccc(Cl)cc1
-8%,CCOC(=O)Cc1csc(NC(=O)c2c(-c3c(Cl)cccc3Cl)noc2C)n1
-9%,Cc1cc(N2CCC(C)CC2)nc(-n2nc(C)cc2C)n1
2%,CCN(CC)CCCNc1nc2cc(OC)c(OC)cc2c2nc(-c3cccnc3)nn12
-30%,O=C(COc1cccc(-n2cnnn2)c1)Nc1ccccc1
-11%,CCOC(=O)c1cn(CC(=O)Nc2ccc(C)cc2)nn1
